High-throughput results as filed in PubChem.
Arbovirus anti = antivirals against arbovirus infection, primary screen, cell-based, full library, 10K replicate subset; arbovirus infection cell-based antiviral screen; inhibition, % at 10 µM; 200,000 compounds, 0.37% hits; AID 1251, 2008;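 active = inhibition from about 30%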;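 note: bluetongue infection of BSR cells; cell survival read as ATP light after 72 h; 0% = infected wells without compound and 100% = uninfected wells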
Mtb growth = M. tuberculosis H37Rv growth inhibitors, H37Rv strain (AID 1626) | M. tuberculosis H37Rv growth inhibition; higher % means a stronger effect | one-dose inhibition, % at 10 µM; IC50 in µM for titrated hits | 220,000 compounds, 0.95% hits;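 active = confirmed in a dose series; inconclusive = inhibition above 80% but not taken into the dose series; inactive = below 80% or under 30% at every dose of the series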;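 note: bacteria incubated seven days before Alamar blue readout; 0% = bacteria only wells and 100% = bacteria with antibiotic wells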
YopH PTP inh = YopH tyrosine phosphatase inhibitors, primary screen, biochemical, fluorescence Ex485/Em525 | YopH tyrosine phosphatase [Yersinia enterocolitica] | inhibition, %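 (about 10 µM by stock and volumes)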 | 140,000 compounds, 0.16% hits;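 active = inhibition of 50% or more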;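 note: controls were vehicle for no effect and minimum signal wells for full effect; inactives centre near -20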
Mtb betalactam = beta-lactam sensitization of Mtb H37Rv, H37Rv | 330,000 compounds, 0.27% hits | inhibition, % at 25 µM | M. tuberculosis H37Rv growth with meropenem, percent inhibition; hits of this screen are not shown here | AID 434955, 2010;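 active = about 74% or more and at least 40 points above the plate without the antibiotic, then above 30% in a dose series; inconclusive = first-round hits that could not be retested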;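 note: growth measured after seven days incubation then overnight dye step; 0% = bacteria only wells and 100% = bacteria with antibiotic; twin plates without the antibiotic show which effects depend on it; some results filed as inactive read as strong as hits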
RecA intein inh = Mtb RecA intein splicing inhibitors, primary screen, biochemical, fluorescence, HTS. cell-free RecA intein splicing. inhibition, %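 (about 9 µM by stock and volumes)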. 290,000 compounds, 0.75% hits. AID 2221, 2009; in the data active = inhibition above about 30%; inconclusive = no clear call, values can overlap the other calls;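 note: 0% = vehicle wells and 100% = reference inhibitor control wells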
Target sequence (P9WHJ3 whole entry, looked up): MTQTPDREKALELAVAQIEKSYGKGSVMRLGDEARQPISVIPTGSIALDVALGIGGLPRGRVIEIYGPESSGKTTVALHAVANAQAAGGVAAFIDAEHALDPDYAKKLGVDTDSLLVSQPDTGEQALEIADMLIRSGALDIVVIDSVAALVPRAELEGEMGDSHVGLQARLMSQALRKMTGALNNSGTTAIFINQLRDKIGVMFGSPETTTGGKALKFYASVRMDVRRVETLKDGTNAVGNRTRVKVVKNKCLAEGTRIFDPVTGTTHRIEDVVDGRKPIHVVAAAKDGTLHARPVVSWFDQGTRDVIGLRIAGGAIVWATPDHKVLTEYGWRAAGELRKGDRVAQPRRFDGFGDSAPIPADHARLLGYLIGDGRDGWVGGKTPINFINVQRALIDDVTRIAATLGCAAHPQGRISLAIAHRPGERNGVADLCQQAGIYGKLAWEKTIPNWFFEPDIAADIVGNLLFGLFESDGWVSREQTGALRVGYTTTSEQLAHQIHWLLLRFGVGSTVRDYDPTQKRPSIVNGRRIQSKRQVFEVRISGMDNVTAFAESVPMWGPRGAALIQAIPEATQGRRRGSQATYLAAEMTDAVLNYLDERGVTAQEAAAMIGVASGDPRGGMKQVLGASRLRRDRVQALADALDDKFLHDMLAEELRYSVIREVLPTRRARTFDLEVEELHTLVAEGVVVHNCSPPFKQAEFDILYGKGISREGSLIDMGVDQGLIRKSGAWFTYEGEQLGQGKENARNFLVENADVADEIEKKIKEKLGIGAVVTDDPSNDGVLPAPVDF
Arbovirus anti repeat = recorded beside Arbovirus anti, whose call it bears; inhibition, %; measured here: 10K subset replicate screen; many hits read low in the repeat;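 first of two repeat runs on a subset; 0% = infected and 100% = uninfected wells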
Numbers without * were called inactive; u = inconclusive; x = no result given. Only part of the results is shown. The share of hits here may be higher or lower than overall.

SMILES | Arbovirus anti | Mtb growth | YopH PTP inh | Mtb betalactam | RecA intein inh | others
O=C(Nc1ccc(F)cc1)c1nc[nH]c1C(=O)Nc1ccc([N+](=O)[O-])cc1 | -19 | 20% | -23 | 48 | 5.1
COc1cccc(NC(=O)N2CCCC2C(=O)NC23CC4CC(CC(C4)C2)C3)c1 (centres undefined) | x | x | x | 8 | 3.2
CCCN1CCN(CCCNC(=O)c2cc3c(=O)[nH]c4ccc(C)cc4c3s2)CC1 | x | -1% | x | -7 | -2.8
O=C(CCCc1ccccc1)Nc1nncs1 | 2 | -12% | -31 | 1 | 1.2
O=S(=O)(c1ccc(-c2ccon2)s1)N1CCCC1 | x | -3% | x | -7 | 0.5
CC(Oc1ccccc1)C(=O)Nc1nnc(C2CCCCC2)s1 (centres undefined) | 2 | 0% | x | 2 | -0.9
O=c1[nH]cnc2c1ncn2Cc1ccc([N+](=O)[O-])cc1 | x | 0% | x | -3 | 0.0
O=c1oc2ccccc2c(Nc2cccc(O)c2)c1[N+](=O)[O-] | -17 | -12% | -28 | -1 | x
COC(=O)C1CCCN1C(=O)c1cccs1 (centres undefined) | 1 | 1% | -33 | -1 | 1.1
CC(/C=N/Nc1nncc(=O)[nH]1)=C\c1ccccc1 | 4 | -7% | -26 | u | -2.4
Cc1cccc(-n2ncc3c(NNC(=O)c4ccco4)ncnc32)c1 | x | x | x | 67 | -1.1
CCOc1ccc(NC(=O)CN(C)C(=O)c2ccccc2SCc2c(C)noc2C)cc1OCC | x | x | x | -9 | -5.2
CC1(C)CC(=O)C(N=Nc2ccc(S(=O)(=O)N3CCCCCC3)cc2)=C(O)C1 | -2 | 7% | -22 | -1 | -0.9
CCC(C)N(C(=O)Cn1nnc(-c2ccc(F)cc2)n1)C1CCS(=O)(=O)C1 (centres undefined) | x | x | x | -8 | 2.1
O=C(NCc1ccc(F)cc1)c1cccnc1C(=O)O | x | x | x | 2 | -0.4
O=C(Nc1cccnc1)c1cc2nc(C3CC3)cc(C(F)(F)F)n2n1 | 10 | 2% | -13 | -6 | 2.7
Cn1c(C(=O)NCc2cccs2)cc2oc3ccccc3c21 | 4 | x | -14 | 10 | -0.8
Cc1nnc(NC(=O)C(C)Sc2nnc(-c3ccco3)n2C(C)C)s1 (centres undefined) | x | x | x | 4 | 0.1
COc1ccc(N2CCN(C(CNC(=O)C(=O)NCc3cccnc3)c3ccco3)CC2)cc1 (centres undefined) | -3 | 1% | x | -8 | -6.9
NC(=O)C[N+]1(CC#CC(O)(c2ccccc2)c2ccccc2)CCCC1 | -1 | -8% | x | 1 | -0.2
C=CCn1c(SCC(=O)N(CC)CC)nc(O)cc1=O | 3 | -1% | -36 | -2 | 3.5
Cc1cc(C)cc(NC(=O)CSc2nnc(CNC(=O)c3cccs3)o2)c1 | 0 | 3% | -23 | 0 | -0.1
O=C(Nc1nccs1)C1CCN(S(=O)(=O)c2c(Cl)cccc2Cl)CC1 | 6 | 1% | -13 | -14 | 1.6
COc1ccc(OC)c(S(=O)(=O)NCc2cn3ccsc3n2)c1 | 8 | 0% | -31 | 1 | 0.7
CC1CC(C)CN(S(=O)(=O)c2ccc(C(=O)Nc3sccc3C(N)=O)cc2)C1 (centres undefined) | -13 | 0% | -49 | -4 | -7.4
SMILES | Arbovirus anti | Mtb growth | YopH PTP inh | Mtb betalactam | RecA intein inh | others
Cc1ccc(C)c2sc(NC(=O)CN3C(=O)CCC3=O)nc12 | x | 0% | x | 0 | -2.5
COc1ccc(CN(C2CCCC2)S(=O)(=O)c2ccc(-n3cnnn3)cc2)cc1 | -9 | -10% | 15 | -8 | 6.1
O=C(/C=C/c1cccc(F)c1)Nc1nccs1 | 19 | 3% | x | 4 | -1.7
OCCNC(=S)NCc1ccccc1 | x | -10% | x | 2 | -0.6
COc1ccc(-c2nc(SC(C)C(=O)Nc3ccc(NC(C)=O)cc3)n[nH]2)cc1 (centres undefined) | x | x | x | 5 | 1.0
O=C(CN1CCOCC1)N1CCN(c2nnc(-c3ccccc3)c3ccccc23)CC1 | -2 | 6% | 4 | 2 | 4.2
COc1ccccc1CNCC(c1ccccc1)c1ccccc1 | x | x | x | 7 | 1.0
CCC(=S)/C=C1\Sc2ccccc2N1CCCS(=O)(=O)O | 12 | -4% | -14 | 3 | 1.8
CCN(CCNC(=O)C1CCN(S(=O)(=O)c2cccc3nsnc23)CC1)c1ccccc1 | -19 | 2% | -25 | -5 | 4.1
C[C@H]1C[C@H]2[C@@H]3CCC4=CC(=O)C=C[C@]4(C)[C@@]3(Cl)[C@@H](O)C[C@]2(C)[C@@]1(O)C(=O)CO | 26 | -13% | -11 | -1 | 1.7
CN(C(=O)C1CCN(S(=O)(=O)c2cccs2)CC1)c1ccccc1 | 9 | 7% | x | -7 | 4.0
CSc1nnc2c3ccccc3n(CCc3ccccc3)c2n1 | 15 | -5% | -40 | -3 | 4.3
Cc1cc2ccccn2c1C(=O)c1cccc(F)c1 | x | x | x | -1 | 2.7
O=C1NC(=S)N/C1=C\c1cccc([N+](=O)[O-])c1 | 4 | -5% | -6 | -1 | 0.4
CCCc1nn2c(=O)cc(CSCC(=O)Nc3ccc(C)cc3)nc2s1 | x | x | x | -11 | 0.4
CCn1c(SCC(=O)Nc2cccc(NC(C)=O)c2)nnc1-c1ccco1 | x | x | x | 3 | 0.3
COc1ccc2nc(NC(=S)NC(=O)c3ccco3)sc2c1 | 1 | 11% | x | 3 | 3.9
CCN(CC)CCn1c(NCc2nc3ccccc3n2Cc2ccccc2)nc2ccccc21 | -27 | 62% | -21 | 87 | 5.7
Cc1csc2ncnc(N3CCN(C(=O)Nc4ccc(OC(F)(F)F)cc4)CC3)c12 | x | 14% | x | 30 | 11
COc1ccccc1N/C(=N/c1nc(C)cc(C)n1)NC(C)=O | -3 | 3% | -49 | x | x
COc1ccc(-c2nnc(C3CCN(S(=O)(=O)c4ccccc4)CC3)o2)cc1 | x | x | x | 1 | -1.2
COc1ccccc1N(C(=O)c1ccco1)C(C(=O)NC1CCCC1)c1ccc(N2CCOCC2)cc1 (centres undefined) | x | x | x | 1 | -0.9
COc1ccc(C(=O)NCC(=O)OCCCOC(=O)CNC(=O)c2ccc(OC)c(OC)c2)cc1OC | x | x | x | u | 1.3
CCCCC(=O)N1CCCC(c2nc(-c3cccc(OC)c3)no2)C1 (centres undefined) | 5 | 3% | x | 0 | 1.7
Cc1cccc(N(C)C(=O)CN(C)S(=O)(=O)c2ccc3c(c2)c(=O)n(C)c(=O)n3C)c1 | x | x | x | -7 | -2.1

The last three compounds of the section above open the next one:
SMILES | Arbovirus anti | Mtb growth | YopH PTP inh | Mtb betalactam | RecA intein inh | others
COc1ccc(C(=O)NCC(=O)OCCCOC(=O)CNC(=O)c2ccc(OC)c(OC)c2)cc1OC | x | x | x | u | 1.3
CCCCC(=O)N1CCCC(c2nc(-c3cccc(OC)c3)no2)C1 (centres undefined) | 5 | 3% | x | 0 | 1.7
Cc1cccc(N(C)C(=O)CN(C)S(=O)(=O)c2ccc3c(c2)c(=O)n(C)c(=O)n3C)c1 | x | x | x | -7 | -2.1
CCCN(CC(=O)Nc1ccccc1C)C(=O)c1cccc(S(=O)(=O)N2CCc3ccccc3C2)c1 | x | x | x | -8 | 7.3
CN1CCN(S(=O)(=O)c2ccc(-c3ccccc3)cc2)CC1 | 6 | -3% | 3 | -4 | -0.1
O=C(N[C@@H](Cc1ccccc1)C(=O)NC1CC1)c1ccc(Cl)cc1 | x | x | x | -7 | -2.2
CCOC(=O)/C(=N\Nc1ccc(C(C)=O)cc1)c1csc(Nc2ccccc2)n1 | -25 | 2% | 3 | 0 | -8.5
COC(=O)N1CC(C)N(C(=O)OC)CC1C (centres undefined) | 6 | 0% | -27 | -20 | 1.8 | Arbovirus anti repeat=-2
CCCCOc1ccc(C(=O)NN2C(=O)NC3(CCCCC3)C2=O)cc1OC | x | x | x | -24 | 4.8
Cc1cccc(-c2nc(S(=O)(=O)c3ccc(F)cc3)c(NCCCN3CCOCC3)o2)c1 | x | x | x | -9 | 4.5
CCCSc1nnc(Sc2nnnn2-c2ccccc2)s1 | -4 | x | -19 | 98 | 47*
CCn1nnc(NC(=O)c2ccc([N+](=O)[O-])o2)n1 | -14 | 4% | x | 3 | -4.9
Fc1ccc(N2CCN(Cc3cnc(Cl)s3)CC2)cc1 | 1 | 0% | x | -5 | 0.7
O=C(OC1CCCCC1=O)c1ccc(F)c(S(=O)(=O)N2CCOCC2)c1 (centres undefined) | x | x | x | 4 | -1.8
O=C/C(=C\Nc1ccc(S(=O)(=O)CCO)cc1)c1nc2cc(Cl)ccc2o1 | 12 | 4% | x | 9 | -1.7
Cc1ccc(NC(=O)N2CCCC2C(=O)Nc2ccc3c(c2)OCO3)cc1 (centres undefined) | x | x | x | 3 | 1.7
Cc1ccc(NS(=O)(=O)c2cc(N)ccc2Cl)c(C)c1 | x | 1% | x | -6 | 2.7
Cc1nc(SCC(=O)NCC2CCCO2)c2oc3ccccc3c2n1 (centres undefined) | -2 | 1% | -40 | -4 | -0.4
O=C(Nn1cnnc1)c1cc2cc(Br)ccc2oc1=O | 15 | 2% | -31 | 44 | -1.1
O=C(COc1ccccc1[N+](=O)[O-])N/N=C/C=C/c1ccco1 | 4 | x | -16 | 4 | 0.7
COc1cc(NC(=O)Nc2ccc(C)cc2)cc([N+](=O)[O-])c1 | 5 | -9% | -16 | 4 | -2.0
N=C1C(=O)OCC1c1ccccc1NC(=O)c1ccccc1 (centres undefined) | 1 | -7% | -39 | 2 | -9.7
O=C(NCCC1=CCCCC1)C1CCN(S(=O)(=O)c2cccs2)CC1 | 1 | -7% | -40 | -2 | -1.3
NC(=S)Nc1ccc(Oc2ccc(NC(N)=S)cc2)cc1 | -14 | 1% | 13 | 43 | -0.5
COc1ccc(-n2cc(CN(C)CCO)c(-c3cccc(F)c3)n2)cc1 | 7 | -7% | x | 7 | 1.4
O=C(COC(=O)CCCc1c[nH]c2ccccc12)Nc1ccc2c(c1)OCO2 | 3 | -6% | -48 | 47 | 3.9
CCOc1cc(NC(=O)c2ccco2)c(OCC)cc1NC(=O)Cc1cccc(OC)c1 | 7 | 19% | 27 | -3 | x
CCOC(=O)c1cnn(CCOC(=O)c2cccc(F)c2)c1NC(=O)c1cccc(F)c1 | 12 | -3% | -6 | -2 | 1.0

5 compounds already listed, sorted by length of the SMILES, rising:
SMILES | Arbovirus anti | Mtb growth | YopH PTP inh | Mtb betalactam | RecA intein inh | others
O=C(CCCc1ccccc1)Nc1nncs1 | 2 | -12% | -31 | 1 | 1.2
CCCc1nn2c(=O)cc(CSCC(=O)Nc3ccc(C)cc3)nc2s1 | x | x | x | -11 | 0.4
Cc1nnc(NC(=O)C(C)Sc2nnc(-c3ccco3)n2C(C)C)s1 (centres undefined) | x | x | x | 4 | 0.1
O=C(COC(=O)CCCc1c[nH]c2ccccc12)Nc1ccc2c(c1)OCO2 | 3 | -6% | -48 | 47 | 3.9
COc1ccc(-c2nc(SC(C)C(=O)Nc3ccc(NC(C)=O)cc3)n[nH]2)cc1 (centres undefined) | x | x | x | 5 | 1.0

The listing continues.
SMILES | Arbovirus anti | Mtb growth | YopH PTP inh | Mtb betalactam | RecA intein inh | others
CC1(C)CC(=O)C2=C(C1)N(c1ccc(F)cc1)C(=O)C2(O)C(F)(F)F (centres undefined) | 4 | x | -36 | -10 | 0.9
CCOC(=O)c1c(C)[nH]c(C)c1C(=O)COC(=O)c1ccccc1O | 13 | 4% | -5 | 7 | -2.8
Cc1cccc2c1NC(=O)C2(O)N1CCCC(C)C1 (centres undefined) | x | x | x | -2 | -0.1
Nc1c2c(nc3ccn(Cc4ccccc4)c(=O)c13)CCC2 | -15 | 7.1µM* | -35 | 81 | -1.3
O=C(Nc1ncccn1)c1cc(-c2cccc(Br)c2)nc2ccccc12 | -18 | 77% | -20 | 98 | 4.0
COc1ccc2c(c1)CCc1c(C(=O)NCCCn3ccnc3)noc1-2 | -9 | -4% | -32 | -3 | 1.5
COc1cc(CN2CCN(S(=O)(=O)c3ccc(F)cc3)CC2)cc(OC)c1OC | 6 | -2% | -24 | 1 | -2.1
CCOC(=O)c1c(NC(=O)c2cccc(N3C(=O)CCC3=O)c2)sc2c1CCN(CC)C2 | x | x | x | 3 | -2.5
CCc1cccc(C)c1NC(=O)COC(=O)C1CCN(S(=O)(=O)c2ccccc2)CC1 | x | x | x | -8 | 1.0
CCC(=O)n1nc(-c2ccc(Cl)cc2)nc1NCc1ccccc1 | -24 | 20% | -4 | 8 | -1.2
CCOC(=O)Nc1nc(-c2ccc(Cl)cc2Cl)cs1 | 10 | 12% | -29 | 79 | 13
